HPGD inh: HPGD (human) dehydrogenase inhibition; purified HPGD, NADH fluorescence kinetic, PGE2 substrate; Potency, µM, for the others: top-dose activity change, negative = inhibition, hits mostly inhibitors; 4.3% of 150,000 active; AID 894; active = well fitted inhibition curve with a large enough effect (not every such curve was filed as active); inconclusive = small, poorly fitted or top-dose-only effect, or another doubt; inactive = no such curve, though single readings can be large or run the other way;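 note: top concentration of the series not given in the record; plate controls included wells without enzyme; inactives centre near -10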
Target sequence (P15428 whole entry, looked up): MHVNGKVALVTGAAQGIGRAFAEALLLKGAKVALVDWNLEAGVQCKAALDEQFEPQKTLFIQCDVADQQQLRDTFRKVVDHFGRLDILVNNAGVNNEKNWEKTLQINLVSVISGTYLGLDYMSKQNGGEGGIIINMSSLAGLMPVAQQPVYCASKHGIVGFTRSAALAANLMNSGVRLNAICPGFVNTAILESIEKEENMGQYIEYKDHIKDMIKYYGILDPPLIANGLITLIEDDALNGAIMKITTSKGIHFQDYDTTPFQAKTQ
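NADH formation kinetics: reaction with 30 uM PGE2 and 1 mM NAD+ (final), 20 nM enzyme, Tris-HCl pH 8 with Tween 20, after 15 min compound preincubation at room temperature. Fluorescence change, last versus first of five reads.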
* marks the source's active call; other numbers are inactive results; ? = inconclusive; & = joins results of further samples. % is set by controls: 0 for no effect and ±100 for the full control effect; potency is the fitted concentration of half-maximal effect.

SMILES | HPGD inh
COc1cccc(C2(c3cccc(OC)c3)CC2C(=O)Nc2ccccc2Cl)c1 (configuration not stated) | -10%
CCCCCC(=O)N(CN1C(=O)CCC1=O)c1ccccc1 | 0%
O=C1C2C(C(=O)N1CC1CCCO1)C1C=CC2C12CC2 (configuration not stated) | 2%
Cc1ccccc1OCC(=O)NCC(=O)OCC(=O)c1ccc2ccccc2c1 | ?
COc1ccc(NC(=O)C(C)Sc2ccccc2)cc1 (configuration not stated) | 1%
COC(=O)c1c(NC(=O)c2ccccc2N(C)S(=O)(=O)c2ccccc2)sc2c1CCCC2 | ?
CCOC(=O)Cc1c(C)nc2c(-c3ccccc3)c(C)nn2c1C | -10%
COCCCNC(=O)CNC(=S)N(Cc1cc(OC)c(OC)c(OC)c1)C1CCCC1 | -10%
Cc1ccc(Cn2ncc3c(N4CCN(c5ccccc5C)CC4)ncnc32)cc1 | ?
O=C(CSc1ccc2nnc(-c3ccncc3)n2n1)Nc1ccc2c(c1)OCCO2 | -7%
O=C(Cc1cccc2ccccc12)NC(NC(=S)Nc1ccccc1Cl)C(Cl)(Cl)Cl (configuration not stated) | -5%
Cc1cc(=O)n(C)c(=O)n1CCCCCN1CCCC1 | 1%
CCN(CC)C(=O)CSc1ncnc2c(-c3cccs3)nsc12 | ?
CN(C)CCCNC1CS(=O)(=O)CC1O (configuration not stated) | -7%
COc1ccc(CCNC(=O)CN2CCN(c3cccc(C(F)(F)F)c3)CC2)cc1 | -9%
COc1ccc(N(CC(=O)N2CCCC(C)C2)S(=O)(=O)c2c(C)nn(C)c2C)cc1 (configuration not stated) | -6%
Cc1ccccc1-n1c(C)cc(/C=N/NC(=O)c2ccncc2)c1C | -17%
N#Cc1cc(-c2ccccc2)nnc1Oc1ccccc1 | -2%
C/C(=N\NC(=O)COc1ccccc1)c1cccs1 | -10%
O=C(NCc1ccco1)c1cc(S(=O)(=O)N2CCOCC2)c(Cl)cc1Cl | -23%
CN(Cc1ccccc1)C(=O)Cn1nc(C(F)(F)F)c2c1CCC2 | -12%
CCOC(=O)c1cc2sccc2n1CC(=O)c1ccc2c(c1)OCCO2 | -12%
COc1ccccc1N1CCN(CCCOc2ccc(F)cc2)CC1 | -6%
CN(CC(=O)N1CCCC1)S(=O)(=O)c1ccc(Cl)cc1 | -12%
CC(C)(C)C(=O)C(Cc1ccccc1)n1cncn1 (configuration not stated) | -12%
CC(=O)NC1C(=O)N(C)c2ccc(Br)cc21 (configuration not stated) | -8%
O=C(CN1CCOCC1)Nc1c2c(nc3ccccc13)N(Cc1ccccc1)CC2 | ?
Cn1c(CNC(=O)C(C)(C)C)nc2ccccc21 | -16%
CCOc1ccccc1N(CC(=O)O)S(=O)(=O)c1ccccc1 | 3%
Nc1cc2c(cc1[N+](=O)[O-])OCCO2 | -13%
CCC(NC(=O)c1ccccc1NC(=O)c1ccc(C)cc1)C(=O)O (configuration not stated) | -8%
COc1ccc(C(=O)Nc2cc3c(cc2Cl)OCCCO3)cc1 | -9%
CCOc1nc(NCCN2CCOCC2)nc(NC(C)C)n1 | -17%
CCOC(=O)N1CCC(NC(=O)C2=C(C)C(=O)OC23CCC(C)CC3)CC1 (configuration not stated) | -8%
COCCn1c(N2CCN(c3ccc(OC)cc3)CC2)nc2c1c(=O)n(C)c(=O)n2C | -13%
CS(=O)(=O)Nc1ccc(C(=O)NCC2CCCO2)cc1 (configuration not stated) | -11%
Cc1nn(C)cc1C1C2=C(CC(C)(C)CC2=O)N(c2ccccc2)C2=C1C(=O)CC(C)(C)C2 | ?
Cc1cccc(NC(=O)Cn2cnc3c(cnn3-c3ccc(F)cc3)c2=O)c1C | -16%
CCCCC(=O)OCC(=O)c1ccc(OCC)cc1 | -18%
O=C(CSc1nc(-c2ccncc2)nn1CC(=O)N1CCCCC1)NC1CCCC1 | -5%
O=C(O)C1C2C=CC(C2)C1C(=O)NC1CCS(=O)(=O)C1 (configuration not stated) | -12%
O=S(=O)(c1cc(Cl)ccc1Cl)N1CCCCC1 | -15%
COc1ccc(N2CCN(c3nc(NC(C)(C)C)nc(N4CCCCC4)n3)CC2)cc1 | -21%
CCCCOc1ccc(-c2cc(C(=O)NNC(=S)NCC)c3ccccc3n2)cc1 | -20%
C[C@@H](C(=O)NCCc1c[nH]c2ccccc12)[C@@H]1C[C@@]1(C)[C@@H](NC(=O)OCc1ccccc1)c1ccccc1 | -26%&-10%
O=C(Nc1cccc(S(=O)(=O)N2CCCCC2)c1)Nc1ccc(Cl)cc1Cl | -5%
O=C(NCc1ccc(F)cc1)C(c1ccccc1)N(CC1CCCO1)C(=O)Cn1nnc2ccccc21 (configuration not stated) | -5%
O=C(Nc1nccs1)NC1CCCCC1 | -2%
COc1ccc2c(c1)c(CC(=O)Nc1ccc(C)cc1)c(C)n2C(=O)c1ccc(Cl)cc1 | -11%
Cc1c(Cl)c([N+](=O)[O-])nn1Cc1ccc(C(=O)Nc2ccc(Cl)cn2)o1 | -8%
CCN(Cc1ccccc1)Cc1cccc([N+](=O)[O-])c1 | -6%
CCC(COC(=O)Nc1cccc(C)c1C)NC(=O)OCC(C)C (configuration not stated) | -12%
O=C1CCCCCN1Cc1nnc(SCc2nc3ccccc3s2)n1-c1ccccn1 | -10%
CCN(CC)CCOc1ncnc2c1oc1ccccc12 | -1%
Cc1nc(C)c(C(=O)Nc2cccc(C)c2C)o1 | ?
Clc1ccc(OCc2nc(-c3ccccn3)no2)c(Br)c1 | -22%
Cc1c(NC(=O)c2ccco2)cccc1-c1nc2cccnc2s1 | -25%
CCOc1ccc(NC(=O)CSc2nnc(Cn3c(=O)sc4ccccc43)n2C)cc1 | -7%
CCN1CCN(C(=O)/C=C/c2c(F)cccc2Cl)CC1 | -4%
O=C1OC(CO)C(O)C(O)C1O (configuration not stated) | -5%
Following part:
SMILES | HPGD inh
O=C(CSc1nnc(Cc2ccccc2)o1)Nc1ccc2c(c1)OCO2 | -9%
OC(CN1CCOCC1)C12CC3CC(CC(C3)C1)C2 (configuration not stated) | 0%
COc1ccc(C(C(=O)NC2CCCC2)N(C(=O)c2ccoc2C)c2ccc(C)c(C)c2)cc1 (configuration not stated) | -4%
O=C(c1ccc(Cn2c(=O)[nH]c3ccccc3c2=O)cc1)N1CCN(c2ccc(F)cc2)CC1 | ?
Cc1[nH]n(-c2ccccc2)c(=O)c1/C=N\NC(=O)C1COc2ccccc2O1 (configuration not stated) | -13%
N#CCCN(C(=O)CSc1nc(-c2ccccc2)cn1N)c1ccc(F)cc1 | 7%
COC(=O)Nc1nc2c(C)cccc2s1 | -7%
COc1ccc(OC)c(NC(=O)CSc2nc3c(c(=O)n(C)c(=O)n3C)n2C)c1 | -11%
COc1ccc2c(C)cc(SCC(=O)Nc3ccc(Cl)cn3)nc2c1 | -17%
COCCn1nnnc1C(C(C)C)N(Cc1ccccc1)Cc1cc2cc(OC)ccc2[nH]c1=O (configuration not stated) | -26%
Cc1nn(-c2ccccc2)c2sc(C(=O)N3CCOCC3)cc12 | -10%
CCc1nnc(NC(=O)c2sc3nc4c(cc3c2N)CCCCC4)s1 | ?

The final seven records of the section above are carried over, then new ones follow:
SMILES | HPGD inh
N#CCCN(C(=O)CSc1nc(-c2ccccc2)cn1N)c1ccc(F)cc1 | 7%
COC(=O)Nc1nc2c(C)cccc2s1 | -7%
COc1ccc(OC)c(NC(=O)CSc2nc3c(c(=O)n(C)c(=O)n3C)n2C)c1 | -11%
COc1ccc2c(C)cc(SCC(=O)Nc3ccc(Cl)cn3)nc2c1 | -17%
COCCn1nnnc1C(C(C)C)N(Cc1ccccc1)Cc1cc2cc(OC)ccc2[nH]c1=O (configuration not stated) | -26%
Cc1nn(-c2ccccc2)c2sc(C(=O)N3CCOCC3)cc12 | -10%
CCc1nnc(NC(=O)c2sc3nc4c(cc3c2N)CCCCC4)s1 | ?
Cc1ccc(C)c(OCC(=O)Nc2ccc3c(c2)OCO3)c1C | -13%
Cn1c(-c2ccc(F)cc2)cnc1SCC(=O)Nc1ccccc1N1CCOCC1 | -2%
CC1CCCCC1NC(=O)Cn1c(CN2CCCCC2)nc2ccccc2c1=O (configuration not stated) | -8%
CCc1c(C)sc(NC(=O)c2ccco2)c1C(=O)N1CCOCC1 | ?
COc1ccc(NC(=O)COC(=O)CCCN2C(=O)c3ccccc3C2=O)cc1Cl | -4%
CNS(=O)(=O)c1ccc2c(c1)NC(=O)C1CCCN21 (configuration not stated) | ?
CC(C)(C)c1nnc(N/N=C/c2ccccc2)n(N)c1=O | -2%
CC(=O)c1ccccc1NC(=O)COC(=O)c1ccccc1NC(=O)c1ccccc1 | -18%
CCn1nnnc1NCc1cccn1C | 1%
Nc1cccc(N)c1 | -5%
Cc1ccc(SCc2nnc(N)s2)cc1 | -13%
O=C(NCC1CCCO1)c1ccc(CS(=O)(=O)Cc2ccc(F)cc2)o1 (configuration not stated) | -10%
CCCCSc1nc(N)c(NC(=O)c2ccco2)c(=O)[nH]1 | 3%
CCN1CCN(C(c2ccc(OC)c(OC)c2)c2nnnn2C(C)(C)C)CC1 (configuration not stated) | -8%
CC(C)(C)S(=O)(=O)c1cnc2c(-c3ccc(Cl)cc3)cnn2c1N | ?
O=C(Nc1ccccc1)O/N=C/c1ccncc1 | -3%
O=C(NC(=S)Nc1nc(-c2ccccc2)cs1)c1cncc(Br)c1 | -7%
Cc1ccccc1Nc1nnc(SCC(=O)N(C)C2CCS(=O)(=O)C2)s1 (configuration not stated) | -18%
CCOC(=O)Nc1ccc2c(c1)N(C(=O)N(CC)CC)c1ccccc1CC2 | 0%
COc1ccc2oc(C(=O)c3ccccc3)c(NC(=O)CN3CCN(C)CC3)c2c1 | -18%
CCOc1ccccc1OCC(=O)Nc1ccc(S(=O)(=O)N(C)C)cc1 | -13%
CCOc1cc(/C=N/O)cc(Cl)c1OC | -18%
C=C(C)C1CC=C(C)/C(=N\NC(=O)CCc2ccccc2)C1 (configuration not stated) | -3%
COc1ccc(Nc2cc(C)nc3ccccc23)cc1 | 1%
C=CCn1c(SCC(=O)Nc2nnc(CC)s2)nnc1-c1ccco1 | -6%
CCOc1cc(CN2CCN(c3ccc(C(C)=O)cc3)CC2)ccc1OC | -9%
CCOc1ccc(OCC)c(S(=O)(=O)N2CCC(C)CC2)c1 | -8%
Cc1cc(C)c(S(=O)(=O)NCC(=O)O)cc1C | -3%
Clc1ccc(-c2nc(-c3ccccn3)no2)cc1Cl | -12%
Cc1nn(C)c(C)c1/C=N/NC(=O)C(C)(C)Oc1ccc(Cl)cc1 | -3%
Fc1cccc(Nc2cc(-n3cccn3)ncn2)c1 | -9%
CC(=O)NC1=NN(C(C)=O)C(C)(c2ccc(C)cc2)S1 (configuration not stated) | -5%
CC(C)(CO)NCc1cc(Br)ccc1OCc1ccccc1 | -15%
CC(=O)NC(Cc1ccccc1)C(=O)NC1CCN(C(=O)c2cnccn2)CC1 (configuration not stated) | -8%
COC(=O)c1cc(OC)c(OC)cc1NC(=O)c1ccc(OC)cc1 | ?
Cn1cccc1/C=N/NC(=O)c1ccc(OC(F)(F)C(F)F)cc1 | -5%
Cc1ccc2oc(=O)cc(/C=C/c3ccccc3)c2c1 | -11%
O=c1c(C=NCCCn2ccnc2)c(-c2ccccc2)[nH]n1-c1nc2ccccc2s1 | -12%
CCOC(=O)c1ccccc1NC(=O)Cc1sc(-c2cccnc2)nc1-c1ccc(C)cc1 | -13%
CCNc1nc(NCC)nc(N(C)n2cnnc2)n1 | 2%
CCC1(CC)Cc2ccccc2-c2nc(-c3ccccc3)oc(=O)c21 | -20%
CC(=O)Oc1cc(-c2coc3cc(OC(C)=O)c(OC(C)=O)c(OC(C)=O)c3c2=O)cc(OC(C)=O)c1OC(C)=O | 7.9µM*
Cn1c(N/N=C/c2ccccc2)nc2sc3c(c2c1=O)CCC3 | -16%
CC1(C)CC2CC(C)(CN2S(=O)(=O)c2ccc(C(=O)Nc3cc(S(=O)(=O)N4CCOCC4)ccc3Cl)cc2)C1 (configuration not stated) | -23%
CC(C)(C)C1(C)OC(C(=O)NC2CCCCC2)C(C(=O)NC2CCCCC2)O1 (configuration not stated) | -1%
O=C(c1ccco1)N1CCN(c2ncnc3c2nnn3Cc2ccccc2Cl)CC1 | 35µM*
CC(C)c1ccc(NC(=O)C2CCCN(S(=O)(=O)c3cnc[nH]3)C2)cc1 (configuration not stated) | 0%
O=C(Nc1ccccc1)c1ccccc1O | ?
C=CCOC(=O)CSCC(NC(=O)OC(C)(C)C)C(=O)OCC (configuration not stated) | -7%
Cc1cc(Cl)ccc1OCC(=O)N[C@@H](Cc1ccccc1)c1nc2ccccc2[nH]1 | -7%
CN(C)S(=O)(=O)c1cccc(NC(=O)COC(=O)c2cn(-c3ccccc3)nc2-c2ccccc2)c1 | -4%
O=C(O)Cn1c(C(F)(F)F)nc2ccccc21 | -4%
C/C(=N/NS(=O)(=O)c1ccc(C)cc1)c1ccc(NC(=O)C(F)(F)F)cc1 | -5%
CCc1ccc(-c2nn(-c3ccccc3)cc2C2SCC(=O)N2Cc2ccco2)cc1 (configuration not stated) | -21%

Quoted at random: 7 records from the list.
SMILES | HPGD inh
O=C(CN1CCOCC1)Nc1c2c(nc3ccccc13)N(Cc1ccccc1)CC2 | ?
COC(=O)Nc1nc2c(C)cccc2s1 | -7%
CC(=O)NC(Cc1ccccc1)C(=O)NC1CCN(C(=O)c2cnccn2)CC1 (configuration not stated) | -8%
CCNc1nc(NCC)nc(N(C)n2cnnc2)n1 | 2%
OC(CN1CCOCC1)C12CC3CC(CC(C3)C1)C2 (configuration not stated) | 0%
O=C(NCc1ccco1)c1cc(S(=O)(=O)N2CCOCC2)c(Cl)cc1Cl | -23%
CC1(C)CC2CC(C)(CN2S(=O)(=O)c2ccc(C(=O)Nc3cc(S(=O)(=O)N4CCOCC4)ccc3Cl)cc2)C1 (configuration not stated) | -23%

Screens deposited in PubChem by National Center for Advancing Translational Sciences (NCATS).

This is a subset; count on the stated rates, not on these rows.
